Assay outcomes: PubChem BioAssay, National Center for Advancing Translational Sciences (NCATS)
VACV Venus inh = inhibitors of vaccinia virus (Venus reporter). Vaccinia virus Venus reporter expression, fluorescence. Potency, µM (doses to about 36.5 µM), inactives show top-dose activity change, negative = inhibition, usual class: inhibitors. 0.46% of 330,000 active. AID 720580; active means well fitted inhibition curve with a large enough effect; inconclusive means small, poorly fitted or top-dose-only effect; inactive means no such curve, though single readings can be large or run the other way; tested in A549 cells; also: nearly all actives have a fitted effect of over 30% in size; inactives centre near -10
Vaccinia mCherry = vaccinia inhibition (mCherry reporter). Vaccinia virus mCherry reporter infection, fluorescence; about a quarter of the inactives have no number. Potency, µM (doses to about 36.5 µM), without a hit: at the highest dose activity change, negative = inhibition, hits mostly inhibitors. 0.63% of 310,000 active. AID 720579; active = well fitted inhibition curve with a large enough effect; inconclusive = small, poorly fitted or top-dose-only effect; inactive = no such curve, though single readings can be large or run the other way; tested in A549 cells; also: nearly all actives have a fitted effect of over 35% in size; inactives centre near -10
* hit, by the source's call; i = inactive; ? = inconclusive; / = no result given; & = joins results of further samples; [ ] = dose if it differs, or a comment. % is scaled to controls: 0 for no effect and ±100 for the full control effect; potency is read from the fitted curve at half-maximal effect. Compounds as they come; about 0.88% have a hit in one of these screens.

cpd	SMILES	VACV Venus inh	Vaccinia mCherry
1	O=C(c1ccco1)N1CCN(C(=O)C2CCN(S(=O)(=O)Cc3ccccc3)CC2)CC1	-16.0%	i
2	Cc1ccc(NC(=O)CN2C(=O)NC(C)(c3ccc4c(c3)OCO4)C2=O)cc1 (stereo not drawn)	-13.6%	-6.3%
3	CC(=O)Nc1cccc(-c2ccnc3c2CC(C)(C(=O)Nc2ccc(F)c(Cl)c2)O3)c1 (stereo not drawn)	-10.9%	12.5%
4	O=C(c1cccnc1)C1Cc2ccccc2C1=O (stereo not drawn)	-9.6%	i
5	CC(C/C=N/NC(=O)COc1cc(Cl)ccc1Cl)c1ccccc1 (stereo not drawn)	-4.1%	-12.8%
6	CCOc1ccc2nc(SCC(=O)Nc3nonc3C)[nH]c2c1	-7.0%	-0.3%
7	C=CCn1cc(/C=N\NC(=O)c2cc3c(ccc4ccccc43)o2)c2ccccc21	-14.7%	/
8	O=C(CCc1ccc(S(=O)(=O)N2CCOCC2)cc1)N/N=C/c1cccc(O)c1	1.9%	-14.4%
9	Cc1cccc(C)c1NC(=O)C1CCCN1S(=O)(=O)c1cccc2nsnc12 (stereo not drawn)	1.2%	-14.9%
10	Cc1cccc2nc(-c3ccccc3)nc(N3CCC(O)(c4ccc(Cl)cc4)CC3)c12	-12.3%	-13.9%
11	CCOC(=O)/C(C#N)=C/c1cc2ccccc2nc1N1CCOCC1	7.9%	-10.1%
12	CC(C)(C)C(CO)NC(=O)c1ccc[nH]1 (stereo not drawn)	1.0%	i
13	O=C(Oc1ccc2c(c1)O/C(=C\c1ccncc1)C2=O)c1ccccc1	-23.4%	-2.4%
14	Cn1c(CNC(=O)c2ccc(Cl)cc2)nnc1SCC(=O)NC1CCCC1	2.0%	-16.5%
15	Cc1ccc(C)c(OCC(=O)N/N=C/c2c(C)nn(-c3ccccc3)c2Cl)c1C	-11.2%	i
16	O=C(Cn1c(=O)n(CCC(=O)N2CCCCC2)c(=O)c2sccc21)NCc1ccccc1	0.1%[7.34 µM]	-6.2%[7.34 µM]
17	C=CCOc1ccc(CNc2ccc(NC(=O)CCC)cc2)cc1OCC	-4.3%	-5.3%
18	CC(C)OC(=O)c1c(F)c(F)c(N2CCOCC2)c(F)c1F	-6.8%	-2.1%
19	CN(C)NC(=S)NC1(C)CCS(=O)(=O)C1 (stereo not drawn)	12.1%	4.4%
20	COc1ccccc1-n1cnc2cc(C(=O)NCC3CCCO3)ccc21 (stereo not drawn)	-5.4%	/
21	COc1cccc(C(=O)NCCS(=O)(=O)N2CCN(C(=O)c3ccco3)CC2)c1	-14.8%	-20.7%
22	CCC1=Nc2cc(C(=O)O)ccc2Sc2ccc(Cl)cc21	-11.6%	i
23	COc1ccc2[nH]c(C(=O)O)c(CCNC(=O)/C=C/c3ccc(O)c(OC)c3)c2c1	-8.8%	i
24	N#CCOC(=O)c1c2c(nc3ccccc13)CCC2	-5.4%	-12.0%
25	Cc1cccc(C(=O)Nc2ccc3c(c2)C(=O)NC3=O)c1	-11.6%	-24.8%
26	CCCCOc1ccc(Cc2n[nH]c(=S)n2N)cc1	-5.4%	-7.5%
27	NC1=NC[C@@H](Cc2ccc(O)cc2)N1CCc1cccc2ccccc12	-1.9%	-11.2%
28	CCCCN1C(=O)CC(Sc2ncccc2C(=O)O)C1=O (stereo not drawn)	-17.2%	-2.4%
29	CCOC(=O)c1cc2c(ccn2C)n1CC(=O)N1CCN(c2ccccc2)CC1	-8.4%	i
30	COc1ccc(-c2nc(C)c(CCNC(=O)c3c(F)cccc3F)s2)cc1	-2.5%	-0.9%
31	CC(C)=C1SC(N2CCN(c3cccc(Cl)c3)CC2)=NC1=O	-30.0%	-16.8%
32	CC(=O)Nc1cccc(C(=O)OC(C)C(=O)NC2CCCc3ccccc32)c1 (stereo not drawn)	-17.2%	-16.5%
33	O=c1ccc(-c2ccccc2)nn1Cc1ccc(F)cc1Cl	?	-28.4%
34	CCc1ccc(OCc2nnc(SCC(=O)NC3CCCCC3)o2)cc1	0.8%	8.0%
35	O=C(NCc1ccccc1)C1CCCN(S(=O)(=O)c2ccc(Br)cc2)C1 (stereo not drawn)	-24.4%	-7.7%
36	CCC1(C2CCN(C(=O)c3ccc(C)cc3C)CC2)NC(=O)N(CCc2scnc2C)C1=O (stereo not drawn)	-22.2%	i
37	Cc1cccc(N(C(=O)Cn2nnc(-c3ccccc3F)n2)C(C(=O)NC(C)(C)C)c2ccncc2)c1 (stereo not drawn)	-6.2%	i
38	Cc1ccc(NC(=O)C(=O)NCC(c2cccnc2)N2CCOCC2)cc1C (stereo not drawn)	-4.8%	-2.6%
39	COc1ccccc1NC(=O)CN1CCN(C(=O)c2ccco2)CC1	1.3%	/
40	COc1ccc(OCc2nnc(SC3CCOC3=O)n2-c2ccccc2)cc1 (stereo not drawn)	-21.4%	i
41	Cc1ccc2[nH]c(C)c(CCN(Cc3cccnc3)C(=S)NC(C)(C)C)c2c1	-13.2%	-25.7%
42	NC1=NC(=O)/C(=C/c2cn(CCC(=O)O)nc2-c2ccc(Cl)cc2)S1	0.7%	7.4%
43	COCCNCC(O)CON=C1c2ccccc2-c2ccccc21 (stereo not drawn)	-24.7%	-18.2%
44	CCOC(=O)c1nn(-c2c(C)n(C)n(-c3ccccc3)c2=O)cc1O	-13.1%	/
45	CCCc1cc(=O)[nH]c(SCc2nc(-c3ccccc3F)no2)n1	-0.6%	i
46	Cc1ccc(/C=N/N=C2\SCC(=O)N2CC2CC2)cc1	?	-15.9%
47	COc1cccc(Cn2c(CNC(=O)c3cc([N+](=O)[O-])ccc3Cl)nc3cccnc32)c1	-9.7%	-16.8%
48	CC(C)n1cc(/C=C2/SC(=O)N(CC(=O)N3CCCC3)C2=O)c2ccccc21	-11.0%	-11.6%
49	COc1cccc2cc(/C(C)=N/NC(=O)c3ccco3)oc12	-12.5%	i
50	Nc1c(C(=O)NCCN2CCOCC2)c2nc3ccccc3nc2n1Cc1ccco1	1.7%	-11.8%

The final 2 records of the part above lead into the next.
cpd	SMILES	VACV Venus inh	Vaccinia mCherry
49	COc1cccc2cc(/C(C)=N/NC(=O)c3ccco3)oc12	-12.5%	i
50	Nc1c(C(=O)NCCN2CCOCC2)c2nc3ccccc3nc2n1Cc1ccco1	1.7%	-11.8%
51	Cc1cc(C)cc(NC(=O)CCc2c(C)nn(-c3ccc(N4CCCC4)nn3)c2C)c1	-11.1%	0.2%
52	COCn1c(=O)c2c(nc(SC3=NCCS3)n2Cc2ccccc2C)n(COC)c1=O	-6.2%	i
53	Cc1ccc(N)c(C)c1	-12.1%	i
54	Cc1ccccc1-c1coc2cc(O)ccc2c1=O	-3.5%	-11.7%
55	COc1ccc(/C=C/C(=O)Nc2sc(Cc3ccccc3)c(C)c2C(N)=O)cc1	-21.8%	-8.1%
56	CCCc1cc(=O)oc2cc(OCC(=O)NCCCn3ccnc3)ccc12	-10.6%	-10.1%
57	O=C(NCc1nnnn1-c1ccc(F)c(F)c1)c1cc2ccccc2o1	-20.1%	-10.4%
58	O=C(N/N=C/C1C(c2ccccc2)C1(Cl)Cl)c1cccc(Br)c1 (stereo not drawn)	-12.8%	/
59	CC(C)OC(=O)c1ccc(Cn2nnc3sc4c(c3c2=O)CCCC4)cc1	-6.0%	-7.9%
60	Cc1cnc(C(=O)Nc2ccc(C(C)C)cc2)cn1	-16.7%	-18.5%
61	O=C(NCCCN1CCCCCC1)c1ccc(CS(=O)(=O)Cc2ccccc2F)o1	-9.2%	/
62	Clc1ccc(-c2nc3ccc(Cl)cn3c2Cc2ccccc2)cc1	-10.9%	-14.7%
63	CCOC(=O)N1CCN(c2c(NCc3ccc(Cl)cc3)c(=O)c2=O)CC1	-14.3%	?
64	Cc1ccc(S(=O)(=O)N2CCCC2CNC(=O)C(=O)NCc2ccccn2)cc1 (stereo not drawn)	-10.7%	i
65	CC(=O)N1CCN(C(=O)c2cc(S(=O)(=O)N(C)Cc3ccccc3)ccc2Cl)CC1	-6.2%	-12.0%
66	CCOc1ccc(Br)cc1C(=O)N/N=C/c1ccc([N+](=O)[O-])cc1	1.3%	?
67	CCCCc1c(C)nc2ccc(OC)cc2c1SCCC(=O)O	-6.7%	13.3%
68	Cc1cccc(N(C(=O)c2csnn2)C(C(=O)NC2CCCCC2)c2ccccn2)c1C (stereo not drawn)	-13.3%	-18.1%
69	COc1ccc(C(Cl)=C(c2ccc(OC)cc2)c2ccc(OC)cc2)cc1	-10.7%&-8.6%	-19.1%&-9.3%
70	Cc1ccc(S(=O)(=O)N2CCCCC2)cc1NC(=O)CNc1ccc(C(F)(F)F)cc1	-5.3%	i
71	Cc1ccccc1Cn1ccc(NC(=O)c2nc3ncccn3n2)n1	-0.1%	/
72	CS(=O)(=O)N1CCC(C(=O)NCCc2ccccc2)CC1	-10.5%	-13.1%
73	CCOC(=O)c1cnc2ccc(OC)cc2c1Nc1ccc(OCc2ccccc2Cl)cc1	-5.7%	-14.7%
74	COc1cc(NC(=O)C2CCN(c3nnc(C)c4c(C)n(-c5ccccc5)nc34)CC2)cc(OC)c1	?	?
75	COC(=O)[C@]1(C)N[C@H](CN(C)S(=O)(=O)c2ccc(-c3ccccc3)cc2)[C@@H]2C(=O)N(Cc3ccccc3)C(=O)[C@@H]21	?	-28.3%
76	Cn1c(N)c(N=O)c(=O)n(C)c1=O	-11.4%	-4.0%
77	CCOc1ccccc1Oc1cn[nH]c1-c1ccc(OC)cc1O	?	/
78	CC1CCCN(S(=O)(=O)c2ccc(S(=O)(=O)N3CCCC3)cc2)C1 (stereo not drawn)	6.0%	15.5%
79	CCCNC(=O)C1(C)CCCN(C(=O)c2cccnc2Oc2ccccc2)C1 (stereo not drawn)	-2.1%	3.5%
80	Cc1cccc(NC(=O)c2ccc(NS(=O)(=O)c3cccc4cccnc34)cc2)c1	-16.6%	-12.4%
81	COC(=O)c1ccc(CNC(=O)Cn2nnnc2CN(C)C(C)C)cc1	-8.6%	-0.8%
82	N#Cc1cnn(-c2ccc(F)cc2)c1N	6.2%[7.34 µM]	-0.5%[7.34 µM]
83	Cc1nn(CCN)c(C)c1Cl	-8.0%	-17.4%
84	C[C@@H]1O[C@@H](O[C@@H]2C=C3CCC4C(CC[C@]5(C)[C@@H](c6ccc(=O)oc6)CC[C@]45O)[C@@]3(C)CC2)[C@H](O)[C@H](O)[C@H]1O (stereo partly drawn)	0.631µM*	?
85	Cc1cc(C)c(Cn2c3ccccc3c3cnn(CC(=O)NCCc4ccccc4)c(=O)c32)c(C)c1	-8.5%	-10.9%
86	CC(OC(=O)c1cc(S(=O)(=O)N2CCOCC2)ccc1F)C(=O)NCc1ccc2c(c1)OCO2 (stereo not drawn)	-14.2%	-10.9%
87	O=C(NN1C(=O)C2C3CCC(O3)C2C1=O)c1ccc(Cl)cc1 (stereo not drawn)	-18.6%	-0.4%
88	COc1ccc(-c2nnc(SCC(=O)Nc3ccc(Cl)cc3)s2)cc1	-14.2%	-11.8%
89	CC(=O)O[C@H]1CCC2C3CCC4=CC(=O)CCC4=C3C=C[C@@]21C (stereo partly drawn)	-10.9%	-0.7%
90	CCN(CC)c1ccc(CC(=O)NC(C)Cc2ccccc2)cc1 (stereo not drawn)	-13.4%	-11.1%
91	Cc1nc(C(F)(F)F)c(C(=O)N/N=C(\N)c2cccnc2)s1	-6.3%	i
92	Cc1nc(Cc2ccc(OC(C)C)cc2)[nH]c(=O)c1CC(=O)O	-1.5%	-2.3%
93	Cc1ccccc1-n1cc(CNC(=O)CCc2nnc(CCc3ccccc3)o2)cn1	-3.5%	-2.4%
94	COc1ccc(-c2csc(C(O)c3cccnc3)n2)cn1 (stereo not drawn)	-1.4%	i
95	CCc1nc(SCc2ccc(C(=O)OC)o2)c2c(=O)n(C)c(=O)n(C)c2n1	-11.7%	i
96	Cc1cc2c(cc1S(=O)(=O)N1CCN(c3ccc(Cl)cc3)CC1)OCCN2C	-10.0%	?
97	Cc1c(C(=O)OCC(=O)N2CCCC2)cccc1[N+](=O)[O-]	-12.4%	-6.9%
98	CCS(=O)(=O)N1CCc2cc(C(=O)NCc3ccccc3)ccc21	-5.5%	-14.5%
99	CCc1ccccc1NC(=S)N1N=CCC1c1ccccc1 (stereo not drawn)	-1.4%	4.6%
100	COCC(=O)OCC(=O)c1cc(C)n(-c2ccc(Br)cc2)c1C	-4.5%	i

Additional structures follow:
cpd	SMILES	VACV Venus inh	Vaccinia mCherry
101	Cc1cc(C)n2c(SCc3ccccc3Cl)nnc2n1	?	-2.7%
102	CCn1nnc2cc(C(=O)N3CCC(C(=O)OC)CC3)ccc21	17.2%	i
103	CCn1c2c(c(=O)n3ncc(C(=O)N4CCN(c5ccc(Cl)cc5)CC4)c13)CN(Cc1ccc(OC)cc1)CC2	-28.4%	?
104	CN1CCN(CC(=O)N2N=C(c3cccs3)CC2c2ccco2)CC1 (stereo not drawn)	-3.5%	i
105	CC(NC(=O)C1CC2CCCC(C1)C2=O)c1ccccc1 (stereo not drawn)	-0.4%	-15.8%
106	Cc1ccc(Nc2nc(NCC3CCCO3)nc(N)c2[N+](=O)[O-])cc1C (stereo not drawn)	-2.6%	-16.3%
107	O=C(O)CCc1cc(I)c(O)c(I)c1	-6.6%	i
108	COc1cc(CN2CCNC(=O)C2CC(=O)N2CCc3ccccc3C2)cc(OC)c1 (stereo not drawn)	5.7%	i
109	O=C(NCC1(N2CCCCC2)CCCCC1)c1cccc(NS(=O)(=O)c2ccccc2)c1	-3.7%	i
